CtBP-E1A blk – blocks the CtBP interaction with E1A; AlphaScreen GST-E1A/His-CtBP binding, 1536-well; active compounds read low; control for the full effect not named in the record; activity change, % (no concentration beside the values); 340,000 compounds, 0.49% hits; AID 651724; in the data active means activity change below about -65%; inconclusive means about -30% to -65%; inactive means above about -30%; note: % is set by controls: 0 for no effect and ±100 for the full control effect
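GST-E1A and His-tagged CtBP (125 nM each as 5X stock) were preincubated with pin-transferred compound for 2 h at 37 °C in the dark, then glutathione donor and nickel acceptor beads were added for 1 h before AlphaScreen reading.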
Six1-Eya2 inh – blocks human Six1 binding to Eya2. Q15475+O00167. AlphaScreen GST-Six1/His-Eya2 binding, biochemical; active compounds read low; control for the full effect not named in the record. activity change, % (no concentration beside the values). 360,000 compounds, 0.56% hits. AID 651725; in the data active = activity change below about -65%; inconclusive = about -30% to -65%; inactive = above about -30%; note: % is set by controls: 0 for no effect and ±100 for the full control effect
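Compounds are tested against tagged Six1 and Eya2 proteins bridged by glutathione donor and nickel acceptor beads; after a one-hour incubation at 37 °C without light, AlphaScreen emission is recorded.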
gsp ag – gsp mutant agonism; 340,000 compounds, 0.13% hits; gsp mutant cells, cAMP HTRF, 30 min; control for the full effect not named in the record; AID 624287; Potency, µM (series often up to 76.9 µM), inactives show at the highest dose activation (cAMP increase), hits mostly activators; active = well fitted activation curve with a large enough effect; inconclusive = small, poorly fitted or top-dose-only effect, or another doubt; inactive = no such curve, though single readings can be large or run the other way; cell line not stated here;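 note: phosphodiesterase inhibitor Ro 20-1724 added with compounds to block cAMP breakdown; potency is the fitted concentration of half-maximal effect; nearly all actives have a fitted effect of over 60% in size; about a fifth of the inactives were tested at one dose only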
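Cells in DMEM/10% FBS with G418 were pretreated with compounds in DMSO plus […] (300 uM stock) for 30 min at 37C. cAMP was measured by HTRF (cAMP-d2 plus anti-cAMP antibody-K) after 30 min at room temperature.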
gsp antagonist – gsp mutant antagonism | gsp-mutant cells, cAMP HTRF, 30 min; control for the full effect not named in the record | Potency, µM (highest dose often 76.9 µM), for inactives: top-dose activity change, negative = inhibition, hits mostly inhibitors | 340,000 compounds, 0.4% hits | AID 624288; active = falling curve of any shape with a large fitted effect; inconclusive = falling curve, mostly with a smaller effect; inactive = flat or rising curve; cell line not stated here;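 note: intracellular cAMP measured with PDE inhibitor Ro 20-1724 present during compound exposure; potency is the fitted concentration of half-maximal effect; % is set by controls: 0 for no effect and ±100 for the full control effect; nearly all actives have a fitted effect of over 65% in size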
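HTRF cAMP read-out (cAMP-d2 plus anti-cAMP antibody-K in lysis buffer, 30 min RT). Before lysis, cells are exposed to compounds with […] for 30 min at 37C in DPBS containing Ca/Mg, BSA and Tween 20.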
D2 PAM – potentiates the human D2 dopamine receptor allosterically. P14416. DiscoveRx D2 beta-arrestin cells, luminescence, 90 min; 100% = 57 uM dopamine signal. potentiation, % (no concentration beside the values). 360,000 compounds, 0.23% hits; active = potentiation of 50% or more; inconclusive = 30% to 50%; inactive = 30% or less;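 note: compound concentration not given in the record; tested on top of an EC20 dose of dopamine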
Target sequence (P14416 whole entry, looked up): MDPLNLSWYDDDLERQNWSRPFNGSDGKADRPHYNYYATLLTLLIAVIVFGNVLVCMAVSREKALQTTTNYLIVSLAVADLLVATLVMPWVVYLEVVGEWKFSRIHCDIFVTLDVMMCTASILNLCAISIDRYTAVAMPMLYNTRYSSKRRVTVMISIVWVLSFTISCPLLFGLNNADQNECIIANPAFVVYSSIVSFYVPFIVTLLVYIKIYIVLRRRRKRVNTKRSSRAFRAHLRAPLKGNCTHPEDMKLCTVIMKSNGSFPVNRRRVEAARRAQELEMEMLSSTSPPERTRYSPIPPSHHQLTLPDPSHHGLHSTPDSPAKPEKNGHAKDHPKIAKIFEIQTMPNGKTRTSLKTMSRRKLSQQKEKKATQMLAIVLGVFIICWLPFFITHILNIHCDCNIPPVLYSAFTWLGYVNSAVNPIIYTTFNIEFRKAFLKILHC
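D2 cells co-treated with compound plus 50 nM dopamine (EC20) for 90 min at 37 deg C to detect potentiation. Beta-arrestin recruitment was read as enzyme-fragment luminescence after 1 h at ambient temperature. Full response was set by 57 uM dopamine.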
D2 agonist – human D2 receptor agonism in beta-arrestin assay | P14416 | 360,000 compounds, 0.084% hits | DiscoveRx PathHunter D2 beta-arrestin, luminescence, 90 min; 100% = 57 uM dopamine signal | activation, % (test concentration not listed); in the data active = activation above about 40%; inconclusive = about 15% to 40%; inactive = below about 15%; note: compound concentration not given in the record; the text of the record calls up to 30% inactive
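DiscoveRx PathHunter D2 beta-arrestin cells (2,100/well) attached overnight, then compound-stimulated 90 min at 37 C in HBSS/10 mM HEPES/0.1% Tween-20 buffer; beta-galactosidase complementation read by luminescence after 1 h at ambient temperature. Dopamine 57 uM final (EC100) as control.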
* marks the source's active call; other numbers are inactive results; ? = inconclusive; / = no result given; [ ] = dose if it differs, or a comment.

1	COC(=O)c1ccc(CSc2nnc(NCc3ccccc3)s2)o1
2	COc1ccc([C@H]2CN(c3ccccc3)C(=O)[C@@H]2CC(=O)Nc2ccccc2)cc1
3	Cc1c(/C=C/C(=O)c2ccccc2O)cnn1C
4	Cn1nc2sc3ccccc3n2c(=O)c1=O
5	CC1CCN(S(=O)(=O)c2cccc(C(=O)NC3CCCCC3)c2)CC1
6	CC(C)c1ccccc1NC(=S)NCc1nc2ccccc2[nH]1
assay / entry	1	2	3	4	5	6
CtBP-E1A blk	-6	0	-19	4	-1	0
Six1-Eya2 inh	-6	-3	-3	2	-15	3
gsp ag	4%	3%	-15%	9%[15.4 µM]	15%[15.4 µM]	9%[15.4 µM]
gsp antagonist	0%	/	0%	9%	-22%	-5%
D2 PAM	-6	/	-24	-5	-14	-17
D2 agonist	-4.2	-1.5	-4.3	-3.1	-8.2	-3.2

7	COc1cc2c(cc1NC(=O)CSc1nnnn1-c1ccccc1)oc1ccccc12
8	CCOC(=O)N1CCN(C(=O)CCS(=O)(=O)c2ccc(Br)s2)CC1
9	COc1ccc(NS(=O)(=O)c2cccc(C(=O)NCCCn3ccnc3)c2)cc1
10	CC1=NN(c2ccccc2)C(=O)C1C(=S)SC1CC(=O)NC1=O (centres undefined)
11	O=C(CSc1nnc(-c2cccc(F)c2)o1)N1CCCC1
12	CC(=O)Nc1ccc(S(=O)(=O)NCCSCc2ccc(Cl)cc2Cl)cc1
assay / entry	7	8	9	10	11	12
CtBP-E1A blk	2	3	-1	-23	8	0
Six1-Eya2 inh	-2	4	-1	?	11	-2
gsp ag	-10%	15%	?	5%	7%[15.4 µM]	-11%
gsp antagonist	1%	4%	8%	/	-1%	?
D2 PAM	-13	1	-12	-21	-4	21
D2 agonist	-4.8	-1.2	-1.3	-15	-3.5	2.9

13	Nc1ncc(Br)cc1S(=O)(=O)Nc1ccccc1F
14	Cc1ccccc1-c1cc(C(=O)NCc2cccc(Br)c2)n(CC2CC(c3cccnc3)=NO2)n1 (centres undefined)
15	COc1ccc(Cc2nc3ccc(C(=O)N4CCCCC4CCO)cc3o2)cc1 (centres undefined)
16	CCOC(=O)c1cc(NC(=O)/C=C\C(=O)O)ccc1Cl
17	O=c1[nH]c2ccc(NS(=O)(=O)c3ccc(Cl)cc3)cc2[nH]1
18	O=C(NC1CCCC1)C1CCN(C(=O)c2ccccc2Cl)CC1
assay / entry	13	14	15	16	17	18
CtBP-E1A blk	-1	2	-5	12	3	0
Six1-Eya2 inh	7	-1	-5	0	2	4
gsp ag	29%	/	-3%	-3%[15.4 µM]	-75%[inhibitor]	13%[15.4 µM]
gsp antagonist	8%	-8%	1%	/	3%	9%
D2 PAM	2	-98	-6	-25	1	1
D2 agonist	-1.0	1.8	-4.2	-3.8	2.3	-4.4

Structures above that have an NH in an aromatic ring:
6	CC(C)c1ccccc1NC(=S)NCc1nc2ccccc2[nH]1
17	O=c1[nH]c2ccc(NS(=O)(=O)c3ccc(Cl)cc3)cc2[nH]1
assay / entry	6	17
CtBP-E1A blk	0	3
Six1-Eya2 inh	3	2
gsp ag	9%[15.4 µM]	-75%[inhibitor]
gsp antagonist	-5%	3%
D2 PAM	-17	1
D2 agonist	-3.2	2.3

Other compounds.
19	COC(=O)c1sccc1NC(=O)CNC(=O)c1ccccc1
20	CCC(=O)N/C(N)=N/c1nc2ccccc2o1
21	CN1CCN(c2nc3c(c(=O)[nH]c(=O)n3C)n2CC(N)=O)CC1
22	O=C(NC(Cc1ccccc1)C(=O)O)/C(=C/c1ccc([N+](=O)[O-])cc1)NC(=O)c1ccco1 (centres undefined)
23	O=C(NCSc1ccccc1)c1ccccc1
24	Cc1cc(NC(=O)Nc2ccccc2)n(C(C)(C)C)n1
assay / entry	19	20	21	22	23	24
CtBP-E1A blk	7	-25	9	9	5	-5
Six1-Eya2 inh	10	-12	-1	7	3	4
gsp ag	-1%[15.4 µM]	-5%[15.4 µM]	8%	-2%	/	?
gsp antagonist	0%	9%	9%	-1%	1%	3%
D2 PAM	-1	-3	-1	13	-3	-9
D2 agonist	5.2	-3.6	-0.2	7.4	-4.4	4.8

25	COc1ccccc1NC(=O)NCC(c1ccco1)N1CCCCC1 (centres undefined)
26	NC(=O)CSc1nnc(CSc2ncccn2)n1-c1ccccc1
27	CCCCc1c(O)nc(SCC(=O)Nc2ccc(C)cc2)n(-c2ccc(OC)cc2)c1=O
28	Cc1ccc(C(=O)N2CCN(C)CC2)cc1S(=O)(=O)N1CCOCC1
29	COc1ccc(NC(=O)c2nc[nH]c2C(=O)N(C)Cc2ccccc2)cc1
30	Cc1nc(N)c(CC(Br)CBr)c(Cl)n1 (centres undefined)
assay / entry	25	26	27	28	29	30
CtBP-E1A blk	2	2	2	-3	1	6
Six1-Eya2 inh	0	-3	0	10	3	3
gsp ag	-13%	-33%	3%	-3%	/	4%
gsp antagonist	12%	8%	-20%	9%	-15%	14%
D2 PAM	-28	-5	-3	-11	-11	-5
D2 agonist	-4.3	-3.7	-6.5	1.3	-2.7	-1.5

Compound profiles, as listed above.
Record of `Cc1nc(N)c(CC(Br)CBr)c(Cl)n1` (centres undefined) → CtBP-E1A blk = 6; Six1-Eya2 inh = 3; gsp ag = 4%; gsp antagonist = 14%; D2 PAM = -5; D2 agonist = -1.5
Record of `COc1ccc(NC(=O)c2nc[nH]c2C(=O)N(C)Cc2ccccc2)cc1` → CtBP-E1A blk = 1; Six1-Eya2 inh = 3; gsp ag = /; gsp antagonist = -15%; D2 PAM = -11; D2 agonist = -2.7

Further records follow:
31	CN(C(=O)c1cc(Cl)c2c(c1)OCCO2)c1c(N)n(Cc2ccccc2)c(=O)[nH]c1=O
32	CCCCN(C(=O)c1cccc(S(=O)(=O)N2CCN(C)CC2)c1)c1c(N)n(CC(C)C)c(=O)[nH]c1=O
33	Cc1ccc(CC2C(=O)N(c3ccc(C)cc3)C(=O)C2C)cc1 (centres undefined)
34	COc1cc2c(cc1OC)C(c1ccc3c(c1)OCO3)CC(=O)N2 (centres undefined)
35	O=C(O)c1ccc(-c2ccc(OS(=O)(=O)c3ccccc3F)cc2)cc1
36	Nc1c(C(=O)Nc2ccc3c(c2)OCCO3)nnn1Cc1ccc(Br)cc1
assay / entry	31	32	33	34	35	36
CtBP-E1A blk	0	-5	7	-26	-4	0
Six1-Eya2 inh	-5	5	13	-5	-3	-5
gsp ag	0%[15.4 µM]	-62%[15.4 µM]	-10%	7%	-3%[15.4 µM]	25%[15.4 µM]
gsp antagonist	15%	7%	-8%	4%	-10%	10%
D2 PAM	-4	5	-5	-1	-2	-24
D2 agonist	-3.0	5.2	4.0	-0.9	1.3	-4.1

37	CC(=O)N(c1ccc(C)cc1)C1C=CS(=O)(=O)C1 (centres undefined)
38	Cc1nn(C)cc1C(=O)Nc1c(C)nn(Cc2ccccc2Cl)c1C
39	COc1ccccc1NC(=O)C(NC(=O)OC(C)(C)C)C(C)OCc1ccccc1 (centres undefined)
40	CCOc1cc(NS(=O)(=O)CC)c(OCC)cc1NC(=O)c1ccco1
41	CCCN(Cc1cc2cc(OC)ccc2[nH]c1=O)C(=O)c1ccncc1
42	Cc1cc(=O)[nH]c(Nc2ccccc2C)n1
assay / entry	37	38	39	40	41	42
CtBP-E1A blk	-1	-3	18	-9	-3	-16
Six1-Eya2 inh	10	10	7	-1	6	2
gsp ag	-28%	10%	?	-5%	6%	-1%[15.4 µM]
gsp antagonist	-5%	-2%	-3%	-4%	11%	15%
D2 PAM	-9	0	-3	7	-4	-12
D2 agonist	-4.4	-3.2	0.8	-11	-0.5	-4.8

43	CCN(CC)CCOCCn1c(C)ccc1C
44	COc1cc2nc(Cl)nc(N3CCOCC3)c2cc1OC
45	Cc1cc(NC(=O)c2ccccc2)n(C)n1
46	Cc1c(Cl)cccc1NC(=O)CCN1CCCCCC1
47	COC(=O)c1ccc(COc2ccc(/C=C(\C#N)c3nc4ccccc4[nH]3)cc2OC)o1
48	Cc1nc(NCC2CCCO2)[nH]c(=O)c1CCC(C)C (centres undefined)
assay / entry	43	44	45	46	47	48
CtBP-E1A blk	8	-10	5	-5	-2	2
Six1-Eya2 inh	-3	5	8	6	-13	-14
gsp ag	-2%	-15%[15.4 µM]	?	-18%	-27%	-22%
gsp antagonist	9%	/	12%	2%	0%	17%
D2 PAM	-5	2	-2	-29	-14	-11
D2 agonist	-0.1	2.3	-1.3	-2.6	4.6	-7.7

49	N#CCSc1nc2ccccc2c(=O)n1CC1CCCC1
50	O=S(=O)(c1ccccc1)c1nc(-c2ccccc2Cl)oc1NCCN1CCOCC1
51	CC(C)c1ccc(NC2CCCN(C(=O)c3ccsc3)C2)cc1 (centres undefined)
52	CCOC(=O)c1cccc(NC(=O)c2ccco2)c1
53	C/C(=N\Nc1ccc(Cl)c(C(=O)O)c1)c1cccs1
54	CC(C)c1ccc(-c2nc(N3CCCCCC3)nc3n[nH]c(N)c23)cc1
assay / entry	49	50	51	52	53	54
CtBP-E1A blk	/	-6	9	-3	-7	-6
Six1-Eya2 inh	7	-9	-13	-2	-17	-1
gsp ag	2%	26%	23%	-16%	-32%	-9%
gsp antagonist	5%	-10%	-21%	-1%	1%	0%
D2 PAM	-5	-20	-8	2	-5	-3
D2 agonist	-2.8	0.4	-5.2	-0.8	0.8	-3.1

55	CCN(C(=O)CSc1nnc(COc2ccccc2F)n1N)C1CCS(=O)(=O)C1 (centres undefined)
56	O=C1CC(Cc2ccc(Cl)cc2)C(=O)N1c1ccccn1 (centres undefined)
57	CN(C)C(=O)COc1ccc(C(=O)/C=C/c2cccnc2)cc1
58	CC(=NNC(N)=O)C1CC2CCC1CC2 (centres undefined)
59	CC1CCCCN1S(=O)(=O)c1ccc2c(c1)C(C)(C)C(=O)N2C (centres undefined)
60	O=C(c1ccccc1)n1c(=O)cc[nH]c1=O
assay / entry	55	56	57	58	59	60
CtBP-E1A blk	-2	-7	4	-14	-1	-16
Six1-Eya2 inh	2	2	-2	4	6	13
gsp ag	-1%	6%	-11%[15.4 µM]	23%	-5%	-2%
gsp antagonist	10%	-10%	3%	/	5%	-6%
D2 PAM	-5	-9	0	-6	-2	-13
D2 agonist	-2.3	-0.6	-2.8	-2.7	-1.1	-2.3

61	CCCCCCCC(=O)N/N=C/c1ccncc1
62	CC(C)(C)OC(=O)C[C@@H]1C/C=C\C[C@@H](CC(=O)N[C@@H](CO)Cc2ccccc2)C(=O)N2CCC[C@@H]2COC1=O
63	O=C1c2ccc(Cl)cc2S(=O)(=O)c2cccc(C(=O)N3CCN(c4ncc(Br)cn4)CC3)c21
64	O=C(O)c1cc(S(=O)(=O)N(Cc2ccccc2)c2ccccc2Cl)ccc1Cl
65	CCOC(=O)c1ccc(NC(=O)CN2C(=O)CCC2=O)cc1
assay / entry	61	62	63	64	65
CtBP-E1A blk	6	21	-11	/	0
Six1-Eya2 inh	-5	17	-25	10	-3
gsp ag	-6%[15.4 µM]	-82%[inhibitor]	-7%	-6%	-14%
gsp antagonist	8%	-6%	-13%	-7%	8%
D2 PAM	-6	-2	-11	-11	1
D2 agonist	-3.7	-1.9	-3.3	-4.9	0.9

From PubChem BioAssay
